Assay outcomes from PubChem.
eIF4H FP inh: inhibitors of RNA binding by human eIF4H. Q15056. eIF4H fluorescence polarization binding assay. inhibition, % at 35 µM. 0.94% of 290,000 active;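 active = 50% or more with normal probe brightness, or confirmed in later tests; inconclusive = above 50% with abnormal brightness, or retests that disagree; inactive = below 50% or failed in later tests; about a fifth of its hits are not listed in these tables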;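 also: calls also rest on retests at 20 µM and on dose response follow-up; 0% = protein and probe with vehicle and 100% = probe without protein; strong numbers were not always called active; many hits fall short of the cut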
HIV Env fusion: HIV envelope-mediated fusion inhibition; AID 651610; inhibition, % at 12.3 µM; 1.1% of 360,000 active; HeLa-JRFL Env/CEM21 cell fusion, luciferase;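 active = mean replicate inhibition score of at least 50 and every replicate individually at or above 50; inconclusive = only one of the two criteria met; inactive = mean below 50 and not all replicates reaching 50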;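 also: 0% = plate neutral controls and 100% = maraviroc near 300 nM; one replicate is shown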
Rce1 inhib: inhibitors of yeast Ras-converting enzyme. Q03530. calls only. 0.27% of 290,000 active. yeast membranes, quenched prenylated peptide cleavage fluorescence. AID 2563;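 active = fall in fluorescence gain of 50% or more versus controls, with final raw signal at or below 3038400; inconclusive = same 50% fall but final raw signal above 3038400; inactive = fall in fluorescence gain under 50%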;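 also: plate controls were neutral control wells for no effect and wells lacking membranes for full effect; tested at 10 µM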
Target sequence (Q03530 whole entry, looked up): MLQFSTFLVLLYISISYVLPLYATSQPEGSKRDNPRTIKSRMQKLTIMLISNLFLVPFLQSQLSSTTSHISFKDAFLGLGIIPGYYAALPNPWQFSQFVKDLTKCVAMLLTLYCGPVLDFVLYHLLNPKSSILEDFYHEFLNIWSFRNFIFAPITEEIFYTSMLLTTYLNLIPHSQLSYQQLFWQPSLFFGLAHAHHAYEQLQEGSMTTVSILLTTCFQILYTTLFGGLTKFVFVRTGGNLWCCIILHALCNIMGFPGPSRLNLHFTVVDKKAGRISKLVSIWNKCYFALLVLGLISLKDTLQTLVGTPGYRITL
MT1-MMP act inh: inhibitors of human MT1-MMP activation. P50281. HT1080 RFP-PRO-GFP cells, GFP/RFP ratio fluorescence, overnight; percent of plate control window, DMSO zero. GFP/RFP ratio change, % at 20 µM. 0.061% of 360,000 active;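 active = GFP/RFP ratio change of at least 30% with cell ATP level not reduced by more than half and red fluorescence within 50% of control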; also: strong numbers were not always called active
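Compound: 20 µM single dose, 1% DMSO / System: HT1080 RFP-PRO-GFP cells / Controls: DMSO and RFP-L50D-GFP cell wells / Read-out basis: GFP/RFP fluorescence ratio / Schedule: overnight compound exposure at 37 °C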
CSC inhib: cancer stem cell inhibition; inhibition, % at 7.5 µM; 1.1% of 300,000 active; cancer stem cell-like cells viability, luminescence;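 active = mean at 75% or more and at least half the replicates too; inconclusive = mean and replicates disagree; tested in HMLE shEcad cells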;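 also: 0% = median of negative and 100% = median of positive control wells; the first replicate is given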
PABP FP inh: blocks human PABP binding to poly(A) RNA. inhibition, % at 35 µM. 1% of 290,000 active. fluorescence polarization. AID 2014. P11940;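 active = 50% or more with normal probe brightness, or confirmed in later tests; inconclusive = above 50% with abnormal brightness, or retests that disagree; inactive = below 50% or failed in later tests; about a fifth of its hits are not listed in these tables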;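 also: calls also rest on retests at 20 µM and on dose response follow-up; controls were probe without protein and protein plus probe with vehicle; some compounds called inactive have numbers as strong as hits; many hits fall short of the cut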
Target sequence (P11940 whole entry, looked up): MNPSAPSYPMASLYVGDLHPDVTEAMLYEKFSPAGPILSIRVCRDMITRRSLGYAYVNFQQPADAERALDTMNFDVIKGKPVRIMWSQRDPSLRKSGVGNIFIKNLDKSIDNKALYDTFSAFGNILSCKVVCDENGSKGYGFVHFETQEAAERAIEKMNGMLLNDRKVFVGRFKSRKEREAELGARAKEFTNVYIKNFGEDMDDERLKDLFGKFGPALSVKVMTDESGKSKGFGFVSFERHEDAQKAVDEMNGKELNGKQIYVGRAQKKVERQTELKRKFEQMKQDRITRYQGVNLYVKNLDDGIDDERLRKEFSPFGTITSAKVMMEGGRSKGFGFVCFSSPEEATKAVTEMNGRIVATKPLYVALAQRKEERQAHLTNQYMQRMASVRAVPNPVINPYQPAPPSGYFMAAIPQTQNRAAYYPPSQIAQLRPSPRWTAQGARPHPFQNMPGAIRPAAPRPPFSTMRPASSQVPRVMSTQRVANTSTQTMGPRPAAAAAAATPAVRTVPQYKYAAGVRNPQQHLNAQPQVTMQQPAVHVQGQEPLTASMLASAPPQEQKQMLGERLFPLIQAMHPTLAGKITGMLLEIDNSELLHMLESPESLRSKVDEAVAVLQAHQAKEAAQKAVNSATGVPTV
Yeast UUG start: yeast start codon fidelity modulation. S. cerevisiae UUG-firefly luciferase reporter, luminescence/redox ratio. activity score, % at 18.7 µM. 0.13% of 350,000 active. AID 602363;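 active = replicate mean at a twofold rise or more, about +100% in these data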;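 also: firefly luciferase made from a UUG start codon reports start codon fidelity; reporter light over untreated wells divided by growth signal over untreated wells; some hits fall short of that in this replicate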
eIF4H FP inh retest: further read-out of eIF4H FP inh, marked with its call; inhibition, %; compound at 20 µM; confirmation average;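 mean of two retest wells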
PABP FP inh retest: further read-out of PABP FP inh, marked with its call; inhibition, %; compound at 20 µM; confirmation repeats;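 mean of two retest wells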
MT1-MMP act inh RFP: further read-out of MT1-MMP act inh, marked with its call; RFP signal change, %; measured here: RFP expression control read;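 0 = vehicle wells; hits needed this value within 50% of zero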
* marks the source's active call; other numbers are inactive results; i = inactive; ? = inconclusive; . = no result given. This is a subset (hit frequency here may not be typical).

SMILES	eIF4H FP inh	HIV Env fusion	Rce1 inhib	MT1-MMP act inh	MT1-MMP act inh RFP	CSC inhib	PABP FP inh	Yeast UUG start	others
CCc1cccc(NC(=O)C2CCN(S(=O)(=O)c3cccs3)CC2)c1	-2	5	i	1	-5	-16	-2	1
O=C(CN1CCN(c2ccccc2O)CC1)NCCCc1ccccc1	4	-11	i	2	4	-7	?	.
O=C(Nc1ccc(-c2nnn(CC(=O)N3CCN(C(=O)c4ccco4)CC3)n2)cc1)c1ccccc1F	-11	-35	i	.	.	-1	-6	.
O=C(Nc1ccc2oc(-c3ccncc3)nc2c1)c1ccc(F)cc1	-15	-1	i	0	-14	1	20	-5
COc1ccc(S(=O)(=O)N2CCCCCC2)cc1C(=O)N(C)Cc1ccc(OC)c(OC)c1OC	.	2	i	-4	-3	-11	.	.
CC1CC(C)CN(CCCNC(=O)Cn2cccc2C(=O)c2ccccc2)C1 (configuration not stated)	7	7	i	1	2	31	11	-11
Cn1nnnc1SCC(=O)Nc1ncc(C(F)(F)F)cc1Cl	.	-23	.	0	1	-15	.	-3
C=CCn1c(=O)c2ccccc2n2c(SC(C)C(N)=O)nnc12 (configuration not stated)	-4	4	i	3	-2	-9	3	-13
CC1CN(C(=O)c2cc3cc(Cl)cc(Cl)c3oc2=O)CC(C)O1 (configuration not stated)	2	?	i	-4	3	-11	-6	-7
CCCCNC(=S)NC(=O)c1ccccc1Br	5	-7	i	0	3	-7	15	.
CN(Cc1cnccn1)C(=O)CC1C(=O)NCCN1Cc1cccc(Oc2ccccc2)c1 (configuration not stated)	-1	18	i	0	0	-5	-3	-10
CCCCc1cc2c(c(NC(=O)CC)n1)c(=O)oc1ccccc12	-3	.	i	2	3	.	-8	.
O=C(Nc1ccn(Cc2ccc(Cl)cc2)n1)c1ccccc1	-2	-12	i	-1	-7	-7	-3	-14
CCCOc1ccc(-c2c(=O)n(OCc3ccc([N+](=O)[O-])cc3)c3ccccc3[n+]2[O-])cc1	-1	.	i	6	-4	11	2	.
COC(=O)C1=CN(CC2CCCO2)C=C(C(=O)OC)C1c1cc(OC)c(OC)c(OC)c1 (configuration not stated)	2	2	i	-1	6	-9	5	-1
CC(CN1CCOCC1)OC(=O)c1cccc(Br)c1 (configuration not stated)	-8	.	i	5	1	0	36	-5
OCC1OC(Oc2c[nH]c3ccccc23)C(O)C(O)C1O (configuration not stated)	.	-95	i	2	9	7	.	-6
O=S(=O)(NCCC1=CCCCC1)c1cccc(Br)c1	.	.	i	-5	-13	-1	.	.
Cc1cc(C(=O)CSc2nc3ccccc3[nH]2)c(C)n1CC1CCCO1 (configuration not stated)	-8	12	i	-15	-16	.	7	.
Cc1ccc(N(C(=O)CNC(=O)c2ccco2)C(C(=O)NC2CCCC2)c2cccnc2)cc1C (configuration not stated)	2	-35	i	-3	1	-1	-6	-8
O=C(O)c1ccc(Oc2cccc([N+](=O)[O-])c2)cc1C(=O)O	-8	13	i	0	3	2	2	-1
CN1CCN(C(=O)CSc2cc(=O)n(C)c3ccccc23)CC1	-1	9	i	3	4	-10	0	.
CC(=O)Nc1cc(-c2cccc(NS(C)(=O)=O)c2)cn2c(-c3cccc(C(C)=O)c3)cnc12	.	12	.	-2	0	.	.	22
CC(/C=C/c1ccco1)=N/NC(=O)CNc1ccccc1C	5	19	i	-1	0	6	-2	.
CCC(C)n1c(=O)c(C(=O)Nc2ccccc2S(N)(=O)=O)c(O)c2ccccc21 (configuration not stated)	-3	-11	i	-1	-3	-2	-4	7
COc1ccc(C(=O)N=c2sc3c(C)ccc(OC)c3n2C)cc1OC	0	-113	i	2	-6	49	11	5
Cc1ccc2[nH]c(=O)c(N3CCOCC3)c(-c3ccccc3)c2c1	-4	32	i	-5	-6	-8	4	2
Cn1nc(C(C)(C)C)c([N+](=O)[O-])c1C(=O)Nc1ccc(Br)cc1	-6	4	i	-2	-6	19	-1	.
CCc1nc2ccccc2n1CC(O)COc1ccc(NC(C)=O)cc1 (configuration not stated)	-11	.	i	-2	1	-5	3	-12
O=C(C/C=N/OCc1ccc(Cl)cc1)c1cnc(-c2ccccc2)s1	-3	.	.	-5	1	-15	-6	-11
CC(C)(C)OC(=O)N1CCC(C(=O)N[C@@H](Cc2ccccc2)C(=O)O)(c2ccccc2)CC1	-6	-14	i	2	2	-12	-4	6
COc1ccc(C(=O)NNC(=O)CSc2nnnn2C)cc1	-9	9	i	1	4	-4	-2	.
COc1cccc(-c2cc(=O)c3cc(NC(=O)c4ccccc4)ccc3[nH]2)c1	-4	-345	i	20	8	61	14	-9
CN(C)S(=O)(=O)N1CCC(c2ccc(F)cc2)C(COc2ccc3c(c2)OCO3)C1 (configuration not stated)	2	.	.	-3	-14	-3	-11	-11
O=C(CSC(=S)N1CCCC1)N1CCN(S(=O)(=O)c2cccc(F)c2)CC1	.	.	i	0	0	3	.	-6
Cc1cccc(C)c1NC(=O)CN(C)C(=O)c1ccccc1SCC(=O)N1CCCC1	.	-63	i	-4	2	0	.	6
CC(C)(C)c1nnc(NC(=O)c2cccs2)s1	-6	-112	i	0	-3	-6	1	.
O=C(CCNc1cccc(F)c1)c1cc2ccccc2o1	49	5	i	1	4	21	-8	.
Cc1cccc(CC2CC(=O)N(c3ccccc3)C2=O)c1 (configuration not stated)	0	.	i	-5	1	6	14	14
O=Cc1cccn1-c1sc2c(c1C(=O)O)CCCC2	9	-5	i	3	3	-2	2	.
CCN1CCc2c(sc(NC(=O)c3ccc(S(=O)(=O)N(C)c4ccccc4)cc3)c2C(=O)NC)C1	?	.	i	-87	1	42	?	-12
CC(=O)NC1=NN(c2ccccc2)C(=O)C1	10	17	i	7	-2	-12	11	-17
Cc1cccc(C(=O)N[C@H](C(=O)Nc2cc(S(=O)(=O)N3CCCCC3)ccc2C)C(C)C)c1	-16	5	i	-26	-20	-5	-3	.
O=C(O)/C=C\C(=O)Nc1ccc(Oc2ccccc2)cc1	1	17	i	1	-2	-10	-1	-17
CCc1c(C)nc2c(C#N)c[nH]n2c1=O	-2	8	i	-2	3	-15	1	3
Cc1cccc2c(C(=O)O)c3c(nc12)CCCCC3	2	.	i	-2	3	1	25	-12
COc1ccc2sc3ccccc3c(=O)c2c1OC	8	.	i	0	5	-5	9	-21
O=C(Nc1ccc(Cc2ccc(NC(=O)Nc3cccnc3)cc2)cc1)Nc1cccnc1	.	13	.	0	-8	.	.	-11

Next part; it opens with the 2 that closed the last part.
SMILES	eIF4H FP inh	HIV Env fusion	Rce1 inhib	MT1-MMP act inh	MT1-MMP act inh RFP	CSC inhib	PABP FP inh	Yeast UUG start	others
COc1ccc2sc3ccccc3c(=O)c2c1OC	8	.	i	0	5	-5	9	-21
O=C(Nc1ccc(Cc2ccc(NC(=O)Nc3cccnc3)cc2)cc1)Nc1cccnc1	.	13	.	0	-8	.	.	-11
Cc1cccc(C)c1OCCCCc1c(C)n[nH]c1C	0	-42	i	-3	-7	-12	5	-26
CC(C)CNC(=O)NC(=O)COC(=O)COc1ccc(Cl)cc1Cl	-11	-10	i	2	2	13	-10	-11
O=C(NCc1cccs1)C(NS(=O)(=O)c1cccc2nsnc12)c1ccccc1 (configuration not stated)	-8	-77	i	8	5	-13	-4	-11
CCCCN(C(=O)CSc1nnc(-c2ccccc2)n1C)c1c(N)n(Cc2ccccc2)c(=O)[nH]c1=O	4	-4	i	1	3	1	10	.
COc1ccc(OC)c(NC(=O)CCNS(=O)(=O)c2cccs2)c1	5	0	i	6	6	.	10	-17
O=[N+]([O-])c1cccc(CNC2CCCCCC2)c1	4	-22	i	-2	2	26	-10	-23
CC(C)(C)n1ncc2c(=O)n(Cc3ccc(Cl)cc3)cnc21	-6	16	i	-1	-12	0	8	.
CC1S/C(=N/N=C2CCC(C(C)(C)C)CC2)NC1=O (configuration not stated)	1	14	i	5	0	.	-7	-16
Clc1ccc2c(c1)C1OCCC1C(c1ccco1)N2 (configuration not stated)	11	-495	i	0	1	2	71	-27	eIF4H FP inh retest=4;PABP FP inh retest=1
Cc1cc(NC(=O)CSc2nnc(-c3ccco3)n2N)no1	.	.	.	-1	0	7	.	-17
CC(C)(CC(=O)O)CC(=O)NNc1ncccc1C#N	5	-57	i	-3	-2	-4	3	-4
CC1=C(C(=O)Nc2ccccc2)C(c2ccco2)C(C#N)=C(SCC(=O)Nc2cccc(C)c2C)N1 (configuration not stated)	2	.	i	8	-3	5	3	-26
Cc1ccc(-c2nn3c(C)nnc3s2)cc1NC(=O)c1cccs1	-5	-151	i	0	-2	0	-15	-11
COc1ccc(CCNC(=O)C2CCN(C(=O)c3ccc(F)cc3)CC2)cc1OC	-4	6	i	-2	5	-10	-5	-12
Cc1nnc(NC(=O)CCCOc2ccccc2)s1	-7	.	i	1	0	-1	-3	-5
CCn1c(C)nc2cc(NC(=O)Nc3cccc(C(C)=O)c3)ccc21	10	-8	i	-8	-8	-11	4	.
CCN(CC)C(=O)c1ccccc1NS(=O)(=O)c1ccc(C)cc1	3	-2	i	-1	3	-13	17	13
COc1ccc(-n2c(COc3cccc4ccccc34)nnc2SC(C)C(=O)O)cc1 (configuration not stated)	2	0	i	4	-2	-13	2	.
NS(=O)(=O)c1ccc(NC(=O)/C=C/c2cccc(Cl)c2)cc1	-4	-45	i	2	-5	-11	5	.
COCCNC(=O)CCC1CCN(Cc2cccc(Oc3ccccc3)c2)CC1	1	4	i	0	-2	3	19	1
Cc1cccc(OCC(=O)NC(Cc2c[nH]c3ccccc23)C(=O)O)c1C (configuration not stated)	11	3	i	1	3	14	-6	.
CCn1c(=S)[nH]c2c(c1=O)C(C)(C)Cc1ccccc1-2	-1	-3	i	-3	-5	.	-2	.
Cc1c(C(=O)NC2CCCc3ccccc32)oc2ccc(S(=O)(=O)N3CCCC3)cc12 (configuration not stated)	-9	8	i	1	-2	.	-1	-15
Cc1ccc(C(=O)NN=C2CCCC2)cc1C	.	2	i	0	6	.	.	-7
O=C(CSc1n[nH]c(=O)n1C1CC1)Nc1cc(Cl)ccc1Oc1ccccc1	8	128*	i	-3	-19	-5	-10	24
O=C(CSc1nnc(CNc2ccc(F)cc2)o1)N1CCN(C(=O)c2ccco2)CC1	-7	.	i	2	1	.	-9	-15
COCCn1c(N)c(Sc2ccc([N+](=O)[O-])cc2)c(=O)[nH]c1=O	9	2	i	3	5	-7	10	.

Gathered by group, the entries above containing a thiophene ring, fused or not (7)
SMILES	eIF4H FP inh	HIV Env fusion	Rce1 inhib	MT1-MMP act inh	MT1-MMP act inh RFP	CSC inhib	PABP FP inh	Yeast UUG start	others
CCc1cccc(NC(=O)C2CCN(S(=O)(=O)c3cccs3)CC2)c1	-2	5	i	1	-5	-16	-2	1
CC(C)(C)c1nnc(NC(=O)c2cccs2)s1	-6	-112	i	0	-3	-6	1	.
O=Cc1cccn1-c1sc2c(c1C(=O)O)CCCC2	9	-5	i	3	3	-2	2	.
CCN1CCc2c(sc(NC(=O)c3ccc(S(=O)(=O)N(C)c4ccccc4)cc3)c2C(=O)NC)C1	?	.	i	-87	1	42	?	-12
O=C(NCc1cccs1)C(NS(=O)(=O)c1cccc2nsnc12)c1ccccc1 (configuration not stated)	-8	-77	i	8	5	-13	-4	-11
COc1ccc(OC)c(NC(=O)CCNS(=O)(=O)c2cccs2)c1	5	0	i	6	6	.	10	-17
Cc1ccc(-c2nn3c(C)nnc3s2)cc1NC(=O)c1cccs1	-5	-151	i	0	-2	0	-15	-11
